Hedgehog inh = Sonic Hedgehog pathway inhibition; Shh-LIGHT2 Gli-luciferase reporter, 30 h; inhibition, % (test concentration not listed); 2.1% of 22,000 active; AID 2313;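 active = replicate mean of 65% or more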;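 note: pathway switched on by Shh-conditioned medium diluted 1 in 25 in low serum; 100 nL library stock added to about 40 µL; 0% = median of neutral wells and 100% = positive control level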
PD-1 reversal = reversal of PD-1 mediated T-cell inhibition; primary human CD4 T cells, PD-L1 beads, CellTiter-Glo 96 h; activation, % (no concentration beside the values); 29,000 tested, under 10 active;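 active = replicate mean of 50% or more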;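 note: 0% = median vehicle wells and 100% = positive control; 100 nL library stock added to about 50 µL; numbers are from one replicate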
YB-1 expression = YB-1 expression inhibition | U2OS, qRT-PCR YB-1 vs CDIP delta delta Cp, 16 h; hits give high values; zero = DMSO, each unit about twofold | delta delta Cp (YB-1 minus CDIP) (concentration not given with the values) | 0.37% of 30,000 active;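 active = delta delta Cp rounded down to an integer at or above 3, about 3 SD of DMSO wells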;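 note: higher means less YB-1 transcript or more CDIP transcript relative to DMSO; stock transfer was 100 nL into about 100 µL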
MITF inh = MITF inhibition | TRPM1 promoter luciferase, luminescence, 24 h | inhibition, % (no concentration beside the values) | 0.28% of 37,000 active;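 active = most replicates at 85% or more, or half of them and the mean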;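 note: human melanocyte line stably carrying TRPM1 promoter luciferase reporter; 0% = vehicle wells and 100% = a positive control; the first replicate is given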
The depositor's hits bear a star; / = no result given. A portion of the library. The share of hits here may be higher or lower than overall.

Below each SMILES – Hedgehog inh	PD-1 reversal	YB-1 expression	MITF inh
> CC(=O)Nc1ccc(NC(=O)CN(c2ccc(F)cc2)S(C)(=O)=O)cc1
  /	3.2	/	-14
> C[C@H](CO)N1C[C@H](C)[C@H](CN(C)C(=O)Nc2ccc3c(c2)OCO3)Oc2ccc(NC(=O)Nc3ccccc3)cc2CC1=O
  -7	2.4	0.08	-9
> CNC[C@H]1Oc2c(NS(=O)(=O)c3ccc(F)cc3)cccc2C(=O)N([C@H](C)CO)C[C@H]1C
  -22	1.2	0.062	-11
> COc1cc2c(cc1OC)C(c1ccccc1NC(=O)c1cccc(Cl)c1)=NCC2
  2	-1.7	-0.25	6
> C[C@H]1CN([C@@H](C)CO)C(=O)Cc2cc(NS(=O)(=O)c3ccccc3)ccc2O[C@@H]1CN(C)S(=O)(=O)c1cccs1
  -20	-0.1	0.14	-8
> COc1ccc(CCNC(=S)N2CCN(C(=O)c3ccco3)CC2)cc1OC
  /	-1.1	/	-2
> CNC[C@@H]1Oc2ccc(NC(=O)CCN3CCOCC3)cc2C(=O)N([C@H](C)CO)C[C@@H]1C
  -18	-0.1	-0.036	-5
> CC(=O)c1ccc(NC(=O)CCCC(=O)O)cc1
  /	2.6	/	-25
> C[C@@H]1CN([C@H](C)CO)C(=O)Cc2cc(NC(=O)Cn3cnnn3)ccc2O[C@H]1CN(C)Cc1ccc(C(=O)Nc2ccccc2N)cc1
  /	2.3	0.16	-2
> CCCSc1nnc(NC(=O)c2nc(SC)ncc2Cl)s1
  /	2.5	/	5

Below each SMILES – Hedgehog inh	PD-1 reversal	YB-1 expression	MITF inh
> C[C@@H]1CN([C@H](C)CO)C(=O)c2cc(NC(=O)CCCN(C)C)ccc2O[C@@H]1CN(C)S(=O)(=O)c1cccs1
  -8	0.6	0.33	0
> C[C@H](CO)N1C[C@H](C)[C@H](CN(C)Cc2ccc(Oc3ccccc3)cc2)Oc2ccc(N(C)C)cc2C1=O
  46	-0.4	-0.15	0
> COCCOC(=O)C1=C(C)NC(C)=C(C(=O)OC(C)C)C1c1cccc([N+](=O)[O-])c1 (stereo not drawn)
  8	/	-0.85	20
> C[C@@H]1CN([C@H](C)CO)C(=O)Cc2cc(N(C)C)ccc2O[C@@H]1CN(C)CC1CC1
  /	0.4	-0.33	-4
> Cc1noc(C)c1NC(=O)Nc1ccc2c(c1)C(=O)N([C@@H](C)CO)C[C@H](C)[C@H](CN(C)C(=O)Nc1c(C)noc1C)O2
  31	/	0.061	-9
> C[C@H](CO)N1C[C@H](C)[C@@H](CN(C)S(=O)(=O)c2cccs2)Oc2c(NC(=O)c3cnccn3)cccc2C1=O
  20	1.2	-0.3	-8
> C[C@H]1CN([C@@H](C)CO)C(=O)c2cc(NC(=O)CCC(F)(F)F)ccc2O[C@H]1CN(C)Cc1ccc(Cl)c(Cl)c1
  /	-0.1	-0.094	5
> C[C@H](CO)N1C[C@H](C)[C@H](CN(C)S(C)(=O)=O)Oc2ccc(NC(=O)C3CC3)cc2CC1=O
  /	/	-0.42	-8
> CSc1ccccc1NC(=O)CN(c1ccc(C)c(Cl)c1)S(C)(=O)=O
  /	1.9	/	13
> COC(=O)C1=CN(C(CC(C)C)C(=O)OC)C=C(C(=O)OC)C1c1ccc(Br)cc1 (stereo not drawn)
  25	-1.8	-0.57	-5

Below each SMILES – Hedgehog inh	PD-1 reversal	YB-1 expression	MITF inh
> CC(C)CC(NS(=O)(=O)c1ccc(C(C)(C)C)cc1)C(=O)O (stereo not drawn)
  /	0.6	/	-4
> C[C@@H]1CN([C@H](C)CO)C(=O)c2cccc(NC(=O)C3CCOCC3)c2O[C@@H]1CN(C)C(=O)Nc1ccccc1
  5	1.5	0.1	-1
> COc1ccc(S(=O)(=O)Nc2cccc3c2O[C@H](CN(C)S(=O)(=O)c2cccs2)[C@@H](C)CN([C@H](C)CO)C3=O)cc1
  -6	0.7	0.059	0
> C[C@H](CO)N1C[C@H](C)[C@H](CN(C)S(=O)(=O)c2ccc(F)cc2)Oc2ccc(NS(=O)(=O)c3ccc(F)cc3)cc2C1=O
  /	-5.3	0.086	-6
> COc1ccc(S(=O)(=O)Nc2cccc3c2O[C@@H](CN(C)Cc2ccc(Oc4ccccc4)cc2)[C@H](C)CN([C@@H](C)CO)C3=O)cc1
  -103	1.2	-0.0056	-2
> CCN(CC(=O)Nc1ccc(C)c(C)c1)S(=O)(=O)c1ccc(C)cc1
  /	0.7	/	3
> Cc1noc(C)c1NC(=O)Nc1ccc2c(c1)C(=O)N([C@H](C)CO)C[C@@H](C)[C@H](CN(C)S(=O)(=O)c1cccs1)O2
  11	0.8	-0.22	5
> C[C@@H]1CN([C@@H](C)CO)C(=O)c2cccc(NC(=O)Nc3ccc(C(F)(F)F)cc3)c2O[C@@H]1CN(C)Cc1ccc(C(F)(F)F)cc1
  44	-3.1	-0.15	8
> Cc1c(Cl)cccc1NC(=O)CSc1nnc(-c2cccs2)n1C
  /	-0.9	/	-2
> Cn1c(SCC(=O)c2cccc([N+](=O)[O-])c2)nnc1-c1cc2ccccc2o1
  /	-5.9	/	9

Below each SMILES – Hedgehog inh	PD-1 reversal	YB-1 expression	MITF inh
> O=C(CCc1ccc(O)cc1)c1ccc(O[C@@H]2O[C@H](CO)[C@H](O)[C@H](O)[C@H]2O)cc1O
  -20	-1.3	1.8	-58
> COC(=O)c1c(-c2cc(OC)c(OC)c(OC)c2)c2ccnc(OCc3ncccn3)c2c(=O)n1Cc1ccnc(C)c1
  -45	-0.5	-0.84	0
> C[C@H]1CN([C@@H](C)CO)C(=O)c2cc(NC(=O)c3ccncc3)ccc2O[C@H]1CN(C)C(=O)Nc1ccc(C(F)(F)F)cc1
  7	-2.0	-0.074	1
> C[C@@H]1CN([C@H](C)CO)C(=O)c2cccc(NS(C)(=O)=O)c2O[C@@H]1CN(C)Cc1ccncc1
  -72	2.4	0.4	-3
> Cc1ccc(NC(=O)c2ccc(NCc3cccnc3)c([N+](=O)[O-])c2)cc1
  /	0.2	/	-5
> C[C@@H]1CN([C@@H](C)CO)C(=O)c2cc(NS(C)(=O)=O)ccc2O[C@@H]1CN(C)S(=O)(=O)c1cn(C)cn1
  -29	1.3	0.13	6
> C[C@H](CO)N1C[C@H](C)[C@@H](CN(C)S(=O)(=O)c2ccc(Cl)cc2)Oc2c(cccc2N(C)C)C1=O
  -24	-2.1	0.18	10
> C[C@H](CO)N1C[C@H](C)[C@@H](CN(C)Cc2ccc(C(=O)O)cc2)Oc2ccc(NC(=O)C3CCCCC3)cc2C1=O
  /	0.8	-0.068	-11
> Cc1cc(N(CC(=O)Nc2cccc([N+](=O)[O-])c2C)S(C)(=O)=O)ccc1Br
  /	-1.1	/	10
> O=C1CC(c2ccccc2)Cc2nc(NCc3ccco3)ncc21 (stereo not drawn)
  /	-3.0	/	6

SMILES	Hedgehog inh	PD-1 reversal	YB-1 expression	MITF inh
C[C@H]1CN([C@@H](C)CO)C(=O)c2cccc(NC(=O)c3nc4ccccc4s3)c2O[C@H]1CN(C)S(=O)(=O)c1ccc(F)cc1	13	-4.3	-0.02	7
c1cc(-c2nc3ccccc3s2)nc(-c2nc3ccccc3s2)c1	-46	0.0	-0.5	-8
Cc1ccc(CNC(=S)NN(C)C)cc1	-5	-0.4	-0.034	-9
COc1ccc(S(=O)(=O)Nc2ccc3c(c2)C(=O)N([C@@H](C)CO)C[C@@H](C)[C@H](CN(C)Cc2ccc(-c4ccccc4)cc2)O3)cc1	15	2.4	-0.098	35
CC(C)NC(=O)N(C)C[C@@H]1Oc2c(NC(=O)c3ccc(-c4nccs4)cc3)cccc2C(=O)N([C@H](C)CO)C[C@@H]1C	-71	0.0	0.46	-9
COc1cc(/C=C/C(=O)O[C@@H]2C[C@@](O)(C(=O)O)C[C@@H](O)[C@@H]2O)ccc1O	-4	0.3	-0.38	1
CCNC(=S)NCC1CC1	/	1.9	0.19	2
Cc1noc(C)c1S(=O)(=O)N(C)C[C@H]1Oc2ccc(NS(=O)(=O)c3ccc(Cl)cc3)cc2CC(=O)N([C@H](C)CO)C[C@H]1C	31	-1.2	0.29	-7
COC(=O)C(O)(CC(=O)Nc1cccc(SC)c1)C(F)(F)F (stereo not drawn)	/	1.7	/	-14
CCc1ccc(-n2c(C)nnc2SCC(=O)Nc2ccc(Cl)cc2Cl)cc1	/	-2.5	/	16
O=C(CNCCO)Nc1sc2c(c1C(=O)Nc1ccc(Br)cc1)CCC2	/	-4.6	/	30
C[C@@H]1CN([C@@H](C)CO)C(=O)c2cc(NC(=O)Nc3ccc4c(c3)OCO4)ccc2O[C@@H]1CN(C)Cc1ccccc1	/	-1.0	-0.33	-31

SMILES	Hedgehog inh	PD-1 reversal	YB-1 expression	MITF inh
C[C@H]1CN([C@@H](C)CO)C(=O)c2cccc(NC(=O)Nc3ccc4c(c3)OCO4)c2O[C@H]1CN(C)Cc1ccccc1	9	2.1	0.76	-5
O=C(COc1ccccc1)Nc1ncn[nH]1	/	0.8	/	-28
COc1ccc(S(=O)(=O)N(C)C[C@@H]2Oc3c(NC(=O)c4ccncc4)cccc3C(=O)N([C@H](C)CO)C[C@H]2C)cc1	5	2.5	-0.2	2
O=C(SCc1cccs1)c1csc(C2COc3ccccc3O2)n1 (stereo not drawn)	-89	2.1	-0.28	-14
Cc1cc(C)c(C)c(Cn2c(CCCO)nc3ccccc32)c1C	/	-5.3	/	8
C[C@H](CO)N1C[C@H](C)[C@H](CN(C)Cc2ccc(Oc3ccccc3)cc2)Oc2ccc(NC(=O)NC3CCCCC3)cc2C1=O	/	1.0	0.1	5
C[C@H]1CN([C@@H](C)CO)C(=O)c2cccc(NS(=O)(=O)c3cn(C)cn3)c2O[C@H]1CN(C)Cc1ccncc1	-9	/	0.42	-8
Cc1noc(C)c1NC(=O)N(C)C[C@@H]1Oc2c(NC(=O)Nc3ccc(C(F)(F)F)cc3)cccc2C(=O)N([C@H](C)CO)C[C@@H]1C	-27	/	-0.78	-2
O=C(Nc1ccc(N2CCC(C(F)(F)F)CC2)nc1)c1ccc(OC(F)(F)F)cc1	/	3.3	-0.13	13
O=C(O)CSc1ccc(Br)c2cccc(C(=O)O)c12	/	2.0	/	-28
C[C@@H]1CN([C@@H](C)CO)C(=O)c2cc(NC(=O)CCCCCC(=O)Nc3ccccc3N)ccc2O[C@H]1CN(C)S(=O)(=O)c1cccs1	/	-0.3	-0.051	-8
C=CC(C)(O)CC[C@H]1C(=C)CCC2[C@](C)(C(=O)O)CCC[C@@]21C (stereo partly drawn)	16	/	1.2	/

SMILES	Hedgehog inh	PD-1 reversal	YB-1 expression	MITF inh
Cc1cc2nn(-c3ccc(F)cc3)nc2cc1NC(=S)NC(=O)COc1ccccc1	/	-0.9	/	-31
Cc1ccc(Oc2ncccc2NC(=O)CSc2ccccn2)c2c1CCC2	-21	0.9	-0.26	8
CCCCOC(=O)c1ccc(O)cc1	-84	0.7	-0.39	-46
O=C(CSc1nc(N2CCCCC2)nc(N2CCCCC2)n1)Nc1ccc(Cl)cc1	/	-3.3	/	7
C[C@@H]1CN([C@@H](C)CO)C(=O)c2cc(NC(=O)NC3CCCCC3)ccc2O[C@H]1CN(C)Cc1ccc(-c2ccccc2)cc1	2	-0.9	-0.2	-6
Cc1ccc(-c2nnc(SCC(=O)Nc3cccc([N+](=O)[O-])c3)n2-c2ccccc2)cc1Cl	/	1.3	/	43
Cc1noc(C)c1NC(=O)Nc1ccc2c(c1)C(=O)N([C@@H](C)CO)C[C@@H](C)[C@@H](CN(C)S(=O)(=O)c1c(C)noc1C)O2	/	/	0.36	5
C[C@@H]1CN([C@@H](C)CO)C(=O)c2cc(NC(=O)Nc3ccc(C(F)(F)F)cc3)ccc2O[C@H]1CN(C)S(=O)(=O)c1ccc(Cl)cc1	1	-1.1	-0.065	-17
C[C@H]1CN([C@@H](C)CO)C(=O)Cc2cc(NC(=O)CCN3CCOCC3)ccc2O[C@H]1CN(C)S(=O)(=O)c1cccs1	/	-0.3	-0.32	-6
C[C@@H]1CN([C@H](C)CO)C(=O)c2cc(NC(=O)c3ccncc3)ccc2O[C@H]1CN(C)S(=O)(=O)c1ccccc1	/	/	-0.12	5
CC(C)NC(=O)N(C)C[C@H]1Oc2ccc(NC(=O)Nc3ccc(F)cc3)cc2CC(=O)N([C@@H](C)CO)C[C@@H]1C	15	1.6	-0.63	5
O=C(O)C12C3CCC4C5C3C1C5(C(=O)O)C42 (stereo not drawn)	/	0.7	-0.85	-12
C[C@@H]1CN([C@H](C)CO)C(=O)c2cccc(NC(=O)c3ccno3)c2O[C@H]1CN(C)S(=O)(=O)c1cccs1	-25	1.0	0.28	-7

High-throughput results deposited in PubChem BioAssay by Broad Institute.
